gsp antag: qHTS for Antagonists of gsp, the Etiologic Mutation Responsible for Fibrous Dysplasia/McCune-Albright Syndrome: qHTS. Potency, µM (series often up to 76.9 µM), inactives show top-dose activity change, negative = inhibition, actives largely listed as inhibitors. AID 624288, 2012. 340,000 tested, 0.4% active. gsp-mutant cells, cAMP HTRF, 30 min; control for the full effect not named in the record; active = falling curve of any shape with a large fitted effect; inconclusive = falling curve, mostly with a smaller effect; inactive = flat or rising curve; cell line not stated here;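 further: intracellular cAMP measured with PDE inhibitor Ro 20-1724 present during compound exposure; potency means the concentration at half of the fitted maximal effect; on the % scale 0 is the no-effect control and ±100 the full control effect; nearly all actives have a fitted effect of over 65% in size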
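G418-selected cells were plated in DMEM/10% FBS for 16-24 h at 37C, then treated with compounds plus the PDE inhibitor […] (300 uM solution added) for 30 min at 37C. Intracellular cAMP was measured by HTRF after 30 min lysis at room temperature.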
Sfp inh: qHTS Assay for Inhibitors of Bacillus subtilis Sfp phosphopantetheinyl transferase (PPTase); 310,000 tested, 3.5% active; Biochemical Sfp PPTase activity, qHTS; Potency, µM, for the others: max response, negative = inhibition, hits mostly inhibitors; 4'-phosphopantetheinyl transferase ffp (Bacillus subtilis), Q9F4F7; active means well fitted inhibition curve with a large enough effect; inconclusive means small, poorly fitted or top-dose-only effect, or another doubt; inactive means no such curve, though single readings can be large or run the other way;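 further: the enzyme is Sfp with the accession as filed and its product quenches rhodamine fluorescence; potency means the concentration at half of the fitted maximal effect; 0% = enzyme reaction without inhibitor and -100% = no enzyme wells; top concentration of the series not given in the record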
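Buffer: 50 mM Hepes-Na pH 7.6, 10 mM MgCl2, 0.01% Nonidet P-40, 0.01% BSA. Enzyme 15 nM, pre-exposed to compound 15 min; substrates then added and fluorescence change tracked over 30 min.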
Menin-MLL FL inh: qHTS Assay for Inhibitors Targeting the Menin-MLL Interaction in MLL Related Leukemias: Competition With Fluorescein Labeled MLL-derived Peptide | Fluorescence polarization, fluorescein-MLL peptide displacement from menin | FP activity change, % at 61.4 µM | 290,000 tested, under 10 active | AID 1766, 2009; inconclusive = falling polarisation curve, or a change in total fluorescence; inactive = total fluorescence flat and polarisation flat or rising; no compound was filed as active; the % refers to the polarisation; negative = inhibition;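 further: % of control where 0% means no effect; inhibitors lower the polarisation; unlabelled MLL peptide was the positive control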
TRPML1 blocker: qHTS for Inhibitors of the Human Mucolipin Transient Receptor Potential 1 (TRPML1) | TRPML1-inducible cells, Ca2+ dye fluorescence, FDSS; hits give low values; inhibition of EC80 agonist-evoked calcium signal | activity change, negative = inhibition, % (test concentration not listed) | 390,000 tested, 0.02% active; in the data active means activity change below about -50%; inconclusive means about -30% to -50%; inactive means above about -30%;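 further: stimulus is agonist 54-4 at its EC80 concentration; on the % scale 0 is the no-effect control and ±100 the full control effect; compound concentration not given in the record; the text of the record puts the active cut at -80%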
Target sequence (Q9GZU1 whole entry, looked up): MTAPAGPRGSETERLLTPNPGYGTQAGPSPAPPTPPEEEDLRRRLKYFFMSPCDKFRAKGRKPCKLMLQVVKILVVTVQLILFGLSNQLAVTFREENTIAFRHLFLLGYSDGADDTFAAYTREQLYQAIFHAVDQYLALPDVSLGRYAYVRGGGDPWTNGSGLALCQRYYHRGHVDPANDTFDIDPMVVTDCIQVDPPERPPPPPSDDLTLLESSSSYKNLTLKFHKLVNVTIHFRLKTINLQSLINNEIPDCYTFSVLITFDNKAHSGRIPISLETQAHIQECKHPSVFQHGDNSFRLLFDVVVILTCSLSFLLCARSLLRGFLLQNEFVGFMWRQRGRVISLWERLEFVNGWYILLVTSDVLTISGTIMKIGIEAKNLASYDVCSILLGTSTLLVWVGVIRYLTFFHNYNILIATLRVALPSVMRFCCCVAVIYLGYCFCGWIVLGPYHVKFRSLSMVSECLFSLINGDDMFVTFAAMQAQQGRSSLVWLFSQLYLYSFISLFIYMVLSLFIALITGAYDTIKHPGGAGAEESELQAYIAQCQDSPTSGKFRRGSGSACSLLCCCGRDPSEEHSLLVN
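Tet-induced TRPML1-DL cells loaded with Ca8 no-wash calcium dye were read kinetically on FDSS. Compound addition was followed by EC80 agonist 54-4 (4 uM final); inhibition was read over 110 s.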
ClpP mod: qHTS Assay for Activators of ClpP. 340,000 tested, 1.9% active. Potency, µM (series often up to 57.5 µM), for inactives: top-dose activity change, negative = active. AID 651965, 2013. purified B. subtilis ClpP, FRET peptide cleavage, 20 min. ATP-dependent Clp protease proteolytic subunit (Bacillus subtilis (strain 168)), P80244; active = well fitted falling curve with a large enough effect; inconclusive = small, poorly fitted or top-dose-only effect; inactive = no such curve, though single readings can be large or run the other way; further: potency means the concentration at half of the fitted maximal effect; the source files actives as falling curves though it sought activators and does not explain the sign; nearly all actives have a fitted effect of over 65% in size; many hits overshoot -100%
Target sequence (P80244 whole entry, looked up): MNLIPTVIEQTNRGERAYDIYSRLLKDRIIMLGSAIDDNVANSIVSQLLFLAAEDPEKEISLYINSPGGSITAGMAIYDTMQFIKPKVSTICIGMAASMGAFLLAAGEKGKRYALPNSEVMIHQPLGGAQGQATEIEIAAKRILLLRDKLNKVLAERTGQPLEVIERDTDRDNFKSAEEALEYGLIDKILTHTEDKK
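FRET quenching reversal measured ClpP activation: 10 microg/mL B. subtilis ClpP at pH 8 with the FRET-FV decapeptide, read at 430 nm after 320 nm excitation. The 20-min minus 0-min signal was scaled between DMSO/no-enzyme wells and ADEP (5.8 microM final).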
TRPV1 potentiator: HTS Assay for Compounds that Act as Potentiators of the Vanilloid Receptor 1. Transient receptor potential cation channel subfamily V member 1 (Homo sapiens), Q8NER1. TRPV1-expressing cells, Fluo-8 calcium influx, capsaicin EC20 potentiation; host cell line not named in the record; control for the full effect not named in the record. potentiation, % at 8.33 µM. 320,000 tested, 0.02% active; active means potentiation above 80%; inconclusive means 30% to 80%; inactive means below 30%; further: 0% is about no effect
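TRPV1-expressing cells were cultured overnight at 35.5C and loaded with Fluo-8 calcium dye for 40 to 90 min at room temperature. After a 10 s baseline, compound was added and calcium influx was read kinetically for 3 min (ex 480/em 520 nm).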
gsp ag: qHTS for Agonist of gsp, the Etiologic Mutation Responsible for Fibrous Dysplasia/McCune-Albright Syndrome: qHTS | gsp mutant cells, cAMP HTRF, 30 min; control for the full effect not named in the record | Potency, µM (titrated, usually from 76.9 µM), inactives show at the highest dose activation (cAMP increase), hits mostly activators | 340,000 tested, 0.13% active | AID 624287, 2012; active = well fitted activation curve with a large enough effect; inconclusive = small, poorly fitted or top-dose-only effect, or another doubt; inactive = no such curve, though single readings can be large or run the other way; cell line not stated here;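 further: phosphodiesterase inhibitor Ro 20-1724 added with compounds to block cAMP breakdown; potency means the concentration at half of the fitted maximal effect; nearly all actives have a fitted effect of over 60% in size; about a fifth of the inactives were tested at one dose only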
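Cells stably selected in G418 were plated at 2000/well, grown 16-24 hr, then given compounds in DMSO with the PDE inhibitor […] (300 uM solution added) for 30 min at 37C; cAMP was read by HTRF.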
The depositor's hits bear a star; ? = inconclusive; · = not tested or not shown; & = joins results of further samples; [ ] = remark or other dose. Rows are unselected (roughly 4.9% active in at least one column).

mol | gsp antag | gsp ag | Sfp inh | TRPV1 potentiator | Menin-MLL FL inh | TRPML1 blocker | ClpP mod
CCOCCCn1c(SC(C(=O)Nc2cc(C)ccc2C)c2ccccc2)nnc1-c1ccc(Cl)cc1 (stereo not drawn) | -10.6% | -37.5%[inhibitor] | 12.1% | -5.4 | 2.0 | 32.0 | 0.7%
CCS(=O)(=O)N1CCN(c2nc(-c3ccccc3)cs2)CC1 | -13.7% | -4.2% | ? | -17.3 | 1.6 | -2.3 | 2.0%
O=C(CN(CCc1ccccc1)S(=O)(=O)c1ccc(Br)cc1)N/N=C/c1ccccc1C(=O)O | 0.4% | 6.6% | 24.6% | 24.8 | -6.7 | -6.9 | ·
COc1ccc(CCNC(=O)Cc2cccc(C(F)(F)F)c2)cc1OC | -1.7% | -6.4%[15.4 µM] | 12.9% | -15.7 | -0.1 | 51.5 | ·
O=C1/C(=C/c2ccc(F)cc2)SC(=S)N1CC(=O)N1CCCCC1c1cccnc1 (stereo not drawn) | ? | 0.6% | ? | -3.9 | · | -1.9 | -2.0%
c1ccc(Cc2nnc3sc(-c4ccccn4)nn23)cc1 | 11.4% | 12.1% | ? | -18.6 | 0.1 | 18.2 | -0.5%
CC(=O)C(Cc1cnc(Cl)s1)(Cc1cnc(Cl)s1)C(C)=O | -2.2% | 4.7% | 3.8% | 3.4 | -1.2 | -29.6 | -20.3%
CCOC(=O)C1=C(C(F)(F)F)Nc2ncnn2C1c1ccc(OC)c(OC)c1OC (stereo not drawn) | 9.2% | -11.8% | -4.8% | -7.7 | 5.9 | 34.3 | 1.5%
COc1cccc(C2C(C(=O)c3ccc(C)o3)=C(O)C(=O)N2CCN2CCOCC2)c1OC (stereo not drawn) | -0.7% | ? | 2.7% | -2.9 | · | 0.1 | -3.6%
CC1=NN(c2ccc(C)cc2C)C(=O)C1C(c1ccccc1O)C1C(=O)N(c2ccc(C)cc2C)N=C1C (stereo not drawn) | 9.1% | 13.4%[15.4 µM] | -5.6% | -3.6 | -7.3 | -8.6 | -2.5%
COc1ccccc1NC(=O)CSc1ccc(-c2ccccn2)nn1 | -4.3% | -2.4%[15.4 µM] | -7.9% | 2.1 | · | -0.9&12.5 | -2.0%&1.1%
CC(=O)c1ccc(OCC(=O)Nc2ccc3c(c2)OCO3)cc1 | · | -4.7% | · | · | · | 1.3 | -3.5%
Cc1ccc(S(=O)(=O)NCCC(=O)NCC(c2ccco2)N2CCCCC2)cc1C (stereo not drawn) | -5.1% | -1.8%[15.4 µM] | · | 2.4 | · | 1.6 | ·
COc1ccc(C(C(=O)NC2CCCC2)N(C(=O)c2snc(-c3ccc(F)cc3)c2N)c2ccc(OC)cc2)cc1 (stereo not drawn) | 0.0% | -12.2% | 12.2% | 11.2 | 0.0 | -8.4 | ?
CCCc1cc(C(=O)NC2CCCCC2)no1 | 4.7% | -20.8% | 6.0% | -30.9 | -3.2 | 5.5 | -1.4%
c1ccc(CN2CCN(c3ncccn3)CC2)cc1 | 4.2% | 13.0%[15.4 µM] | -11.2% | -3.1 | -1.8 | -7.4 | -3.1%
COCCCn1c(SCC(=O)NCc2ccccc2)nc2ccccc2c1=O | -4.8% | 20.8% | 8.6% | 3.0 | 0.7 | 3.1 | -0.9%
CC(OC(=O)c1ccc(NC(N)=O)cc1)C(=O)Nc1ccc2c(c1)OCCO2 (stereo not drawn) | -1.6% | -33.5%[inhibitor] | · | · | · | 0.1 | ·
Nn1c(COc2ccccc2F)nnc1SCC(=O)NC1CCCCC1 | 10.0% | 3.8% | · | 10.6 | · | 6.8 | 0.6%
CC1CCN(C(=O)CSc2nncn2C)CC1 | 2.0% | -2.5% | 10.4% | -34.6 | 0.3 | 21.0 | -5.5%
Cc1ccc(Cl)cc1N1CCN(C(=O)COc2ccc(S(=O)(=O)NC(C)C)cc2)CC1 | -20.8% | -31.2%[inhibitor] | 4.3% | -3.8 | -1.9 | 19.6 | -2.9%
CCN1C(=O)c2ccc(C(=O)NCc3ccccc3)cc2C1=O | 4.8% | 0.0% | 4.7% | 2.3 | -4.6 | -4.2 | -0.9%
Cc1c(Cl)cccc1NC(=S)N(Cc1cccnc1)Cc1ccccc1Cl | -11.1% | -10.1%[15.4 µM] | -5.1% | -6.6 | -2.2 | -2.9 | -0.6%
COc1c(F)c(F)c(C(=O)O)c(Nc2cc(C)cc(C)c2)c1F | 14.2% | 2.3%[15.4 µM] | 9.6% | 4.7 | 2.5 | 0.6 | ·
CCCc1c(C(=O)N/N=C(\C)c2ccc(CC(C)C)cc2)nnn1-c1nonc1N | · | -56.8%[inhibitor] | · | · | · | 30.6 | -4.6%
CSCCC(NC(=O)c1ccco1)C(=O)OCc1cc([N+](=O)[O-])cc2c1OCOC2 (stereo not drawn) | -4.2% | -4.0% | 14.7% | 17.8 | -0.1 | -5.6 | -0.7%
CCOc1ccc(NC(=O)CN(C)C(=O)/C=C/c2ccc(S(=O)(=O)N3CCCCCC3)cc2)cc1OCC | -3.4% | 35.2% | · | 15.3 | · | 5.3 | -1.1%
COc1cc(NS(=O)(=O)c2cc(C(=O)NCCc3ccccn3)ccc2OC)cc(OC)c1 | -3.2% | -11.8% | · | · | · | -8.8 | ·
Cc1cc(C(=O)NN=C2CCCCCCC2)c2ccccc2n1 | 12.6% | -14.4% | · | 28.7 | · | -10.4 | 1.6%
COC(=O)Nc1nc(C)c(C(=O)c2ccccc2)s1 | 11.6% | -87.1%[inhibitor] | -4.7% | 8.5 | -3.8 | 4.1 | ?
COC(=O)c1ccc(COc2ccc3c(C)c(C)c(=O)oc3c2)o1 | 14.6% | 0.9% | -11.4% | -2.2 | 2.8 | 25.2 | 2.82µM*
CC(C)c1nnc(NC(=O)CCC(=O)Nc2ccc(F)cc2)s1 | 4.9% | -14.8% | -5.7% | -1.6 | 0.0 | -15.4 | -0.7%
C1CCC(NC2=NCCO2)CC1 | · | -53.3%[inhibitor] | · | · | · | 26.5 | 1.3%
CCOCCn1c(=O)c2c(nc3n2CCCN3CCc2ccccc2)n(C)c1=O | -3.2% | -3.9% | 8.7% | -11.0 | · | -4.7 | -2.7%
COc1ccc2nc(NC(=O)Nc3cccc4ccccc34)sc2c1 | -3.6% | -15.6% | 16.7% | 3.4 | 0.5 | -29.4 | 4.4%
N#CC1(NC(=O)CN2CCc3ccccc3C2)CCCC1 | 3.2% | 10.0%[15.4 µM] | 15.8% | -7.5 | 0.0 | 41.2 | ·
O=C(O)C1=C[C@H](c2ccc(Br)cc2)C[C@H](OCc2ccc(CO)cc2)O1 | 1.7% | 14.4% | 6.4% | 9.1 | -5.2 | 5.4 | -1.5%
O=C(Nc1c2c(nn1-c1ccc(F)cc1)CS(=O)C2)c1ccc(S(=O)(=O)N2CCOCC2)cc1 (stereo not drawn) | 11.5% | -1.4% | 9.3% | 11.0 | -3.2 | -9.3 | ·
C=CC[C@@H](CC(=O)N[C@@H](CO)Cc1ccccc1)C(=O)N[C@H](COC(=O)[C@@H](CC=C)CC(=O)OC(C)(C)C)Cc1c[nH]c2ccccc12 | -21.3% | · | · | · | · | -17.9 | -2.4%
Cc1cccc(C(=O)NCCN2CCOCC2)c1[N+](=O)[O-] | -1.3% | -74.2%[inhibitor] | 11.8% | 15.9 | 2.5 | -7.5 | 0.7%
CC(=O)C[C@H](O)CC(=O)[C@@H]1OC(=O)CCCCCCc2ccccc21 | -2.7% | · | · | -15.1 | · | -2.0 | -1.1%
O=C(NCc1ccccn1)C1CCN(S(=O)(=O)c2ccccc2F)CC1 | 11.9% | 25.0% | · | 0.0 | · | -8.1 | -1.7%
CC1=C([N+](=O)[O-])C(c2ccccc2)C2=C(N1)c1ccccc1C2=O (stereo not drawn) | -13.8% | 3.7% | ? | -11.7 | 3.6 | 2.6 | -8.2%
CCC(=O)Nc1c(-c2ccc(Cl)cc2)c(=O)c2ccccc2n1C | 4.5% | 24.6% | 7.1% | -3.3 | 0.0 | -12.9 | -19.5%
Cc1cc(NC(=O)COC(=O)CCn2c(C)csc2=O)c([N+](=O)[O-])cc1C | · | -48.5%[inhibitor] | · | · | · | 1.3 | -1.3%
CCC(C(=O)OCC(=O)Nc1c(C)nn(-c2ccccc2)c1C)c1ccccc1 (stereo not drawn) | -3.6% | -12.4%[15.4 µM] | · | 2.1 | · | -8.4 | ·
N=C1C(c2nc3ccccc3s2)=C(O)CN1NC(=O)c1ccccc1[N+](=O)[O-] | -3.9% | 2.0%[15.4 µM] | 13.4% | -4.4 | ? | -4.5 | ·
CC(C)CC(C(=O)Nn1cnnc1)N1C(=O)c2ccccc2C1=O (stereo not drawn) | 6.2% | -25.6% | 1.4% | -9.5 | 3.9 | -9.7 | 0.0%
Cc1c([N+](=O)[O-])nnn1-c1cc(Cl)cc(Cl)c1 | -15.6% | 10.5% | 6.4% | 9.0 | -0.2 | -0.9 | ·
CC(=O)c1ccc(NC(=O)CSc2ccc(-c3ccc4c(c3)OCO4)nn2)cc1 | 8.0% | -5.6%[15.4 µM] | -4.4% | -3.1 | 0.0 | -10.4 | -1.4%
Cc1ccc(NC(=O)CN(C)CCOc2ccccc2)c([N+](=O)[O-])c1 | -20.7% | 21.5% | -5.1% | 4.0 | 1.4 | 11.2 | ·
Cc1nc2scc(C)n2c(=O)c1S(=O)(=O)Nc1ccc(F)cc1 | -4.8% | -41.0%[inhibitor] | 11.4% | ? | -1.6 | 35.6 | ·

Screening data: PubChem BioAssay, National Center for Advancing Translational Sciences (NCATS)
